VACV mCherry inh – qHTS for Stage-Specific Inhibitors of Vaccinia Orthopoxvirus: mCherry Reporter Primary qHTS; Vaccinia virus mCherry reporter infection, fluorescence; about a quarter of the inactives have no number; Potency, µM (series often up to 36.5 µM), without a hit: at the highest dose activity change, negative = inhibition, actives largely listed as inhibitors; 310,000 compounds, 0.63% hits; AID 720579, 2013; active = well fitted inhibition curve with a large enough effect; inconclusive = small, poorly fitted or top-dose-only effect; inactive = no such curve, though single readings can be large or run the other way; tested in A549 cells; also: nearly all actives have a fitted effect of over 35% in size; inactives centre near -10
VACV Venus inh – qHTS for Stage-Specific Inhibitors of Vaccinia Orthopoxvirus: Venus Reporter Primary qHTS; Vaccinia virus Venus reporter expression, fluorescence; Potency, µM (doses to about 36.5 µM), without a hit: top-dose activity change, negative = inhibition, most hits filed as inhibitors; 330,000 compounds, 0.46% hits; AID 720580, 2013; active means well fitted inhibition curve with a large enough effect; inconclusive means small, poorly fitted or top-dose-only effect; inactive means no such curve, though single readings can be large or run the other way; tested in A549 cells; also: nearly all actives have a fitted effect of over 30% in size; inactives centre near -10
Numbers without * were called inactive. % is scaled to controls: 0 for no effect and ±100 for the full control effect; potency is read from the fitted curve at half-maximal effect. Compounds as they come (roughly 0.86% active in at least one column).

O=C(c1ccc(Cl)cc1)N1CCC(c2nc3ccccc3o2)CC1 was read as VACV mCherry inh -9% and VACV Venus inh -5%.
`Cc1ccc(N(C)S(=O)(=O)c2c(-c3ccccc3)csc2C(=O)O)cc1` gave VACV mCherry inh -5% and VACV Venus inh 1%.
Cc1ccc(S(=O)(=O)N/N=C/C(C)(C)CO)cc1 was read as VACV Venus inh -4%.
`CCOC(=O)c1c(NCC(C)C)c2ccccc2[nH]c1=O` gave VACV Venus inh -10%.
`CCC(=O)Nc1cccc(NC(=O)CSc2nc3c(c(=O)n(C)c(=O)n3C)n2C)c1` gave VACV mCherry inh -12% and VACV Venus inh -7%.
`Cc1ccc(S(=O)(=O)N2CCOC2CNC(=O)C(=O)NCCN2CCOCC2)cc1` (stereo not given) gave VACV mCherry inh -14% and VACV Venus inh -9%.
`CCCn1c(C(=O)c2ccc(OC)cc2)nc2ccccc21` gave VACV mCherry inh inactive and VACV Venus inh -3%.
For CCOC(=O)c1[nH]c(C)c(CCC(=O)NCc2ccc(N(C)C)cc2)c1C the results were VACV mCherry inh -14% and VACV Venus inh -1%.
`CC(C)(NO)/C(=N\O)c1ccccc1` gave VACV Venus inh -12%.
For COc1ccc(C(=O)NCC(=O)N/N=C(C)\C=C\c2ccccc2)cc1OC the results were VACV mCherry inh -6% and VACV Venus inh -24%.
Screening CCCN(CCC)CCCNC(=O)c1cnn(-c2ccc(F)cc2)c1-n1cccc1 returned VACV mCherry inh -9% and VACV Venus inh 3%.
`COc1ccc(C(=O)O)cc1S(=O)(=O)N(CCc1ccccc1)Cc1ccccc1` gave VACV mCherry inh -3% and VACV Venus inh -1%.

10 successive entries from above:
O=C(c1ccc(Cl)cc1)N1CCC(c2nc3ccccc3o2)CC1 was read as VACV mCherry inh -9% and VACV Venus inh -5%.
`Cc1ccc(N(C)S(=O)(=O)c2c(-c3ccccc3)csc2C(=O)O)cc1` gave VACV mCherry inh -5% and VACV Venus inh 1%.
Cc1ccc(S(=O)(=O)N/N=C/C(C)(C)CO)cc1 was read as VACV Venus inh -4%.
`CCOC(=O)c1c(NCC(C)C)c2ccccc2[nH]c1=O` gave VACV Venus inh -10%.
`CCC(=O)Nc1cccc(NC(=O)CSc2nc3c(c(=O)n(C)c(=O)n3C)n2C)c1` gave VACV mCherry inh -12% and VACV Venus inh -7%.
`Cc1ccc(S(=O)(=O)N2CCOC2CNC(=O)C(=O)NCCN2CCOCC2)cc1` (stereo not given) gave VACV mCherry inh -14% and VACV Venus inh -9%.
`CCCn1c(C(=O)c2ccc(OC)cc2)nc2ccccc21` gave VACV mCherry inh inactive and VACV Venus inh -3%.
For CCOC(=O)c1[nH]c(C)c(CCC(=O)NCc2ccc(N(C)C)cc2)c1C the results were VACV mCherry inh -14% and VACV Venus inh -1%.
`CC(C)(NO)/C(=N\O)c1ccccc1` gave VACV Venus inh -12%.
For COc1ccc(C(=O)NCC(=O)N/N=C(C)\C=C\c2ccccc2)cc1OC the results were VACV mCherry inh -6% and VACV Venus inh -24%.

The listing continues.
`O=C1NC(=O)C(c2cn(-c3ccccc3)nc2-c2ccc(F)cc2)N1` (stereo not given) gave VACV mCherry inh inactive and VACV Venus inh -4%.
CCOC(=O)[C@H]1[C@H]2COc3ccc(OC)cc3[C@@H]2N2C(=O)CN(CCc3c[nH]c4ccccc34)C(=O)[C@@]12C was read as VACV mCherry inh -9% and VACV Venus inh -5%.
`CCCc1nc(SCC(=O)c2ccccc2)c2c(=O)n(C)c(=O)n(C)c2n1` gave VACV mCherry inh -2% and VACV Venus inh -25%.
`COCCCNC(=O)c1cccs1` gave VACV mCherry inh -11% and VACV Venus inh 2%.
Cc1ccc(Cn2c(=O)c3c(nc4n3CCCN4Cc3ccccc3)n(C)c2=O)cc1 was read as VACV Venus inh 11%.
Screening C=CCOc1ccc(/C=C/C(=O)OCC(=O)NC2CCCCCCC2)cc1 returned VACV mCherry inh -1% and VACV Venus inh -6%.
For CCOC(=O)C1CCC/C1=N\NC(=O)CN(c1cc(OC)ccc1OC)S(=O)(=O)c1ccccc1 (stereo not given) the results were VACV mCherry inh -26% and VACV Venus inh -13%.
C[C@H](NC(=O)OCc1ccccc1)C(=O)NNC(=O)[C@H](C)NC(=O)OCc1ccccc1 was read as VACV mCherry inh -11% and VACV Venus inh 1%.
`COc1cccc(NC(=O)C2CCN(S(=O)(=O)c3ccc4[nH]c5c(c4c3)CCCCC5)CC2)c1` gave VACV mCherry inh inactive and VACV Venus inh -27%.
`O=C(C1CCN(S(=O)(=O)Cc2ccccc2)CC1)N1CCN(c2ccc(F)cc2)CC1` gave VACV mCherry inh -20% and VACV Venus inh -19%.
`COc1ccc(-n2nc3c(c2NC(=O)C2CC2)CS(=O)C3)cc1` (stereo not given) gave VACV mCherry inh -3% and VACV Venus inh 5%.
`O=C1[C@H]2CCC=C[C@H]2[C@H](c2cccc(Br)c2)N1Cc1ccccc1` gave VACV mCherry inh -9% and VACV Venus inh -19%.
`Cc1cn([C@@H](CCCCNC(=O)OC(C)(C)C)C(=O)NCCCCCCCCCCC(=O)N2CCN(C(=O)OC(C)(C)C)CC2)nn1` gave VACV mCherry inh -11% and VACV Venus inh inconclusive.
COc1ccc(Cc2n[nH]c(=S)n2C)cc1Br was read as VACV mCherry inh -13% and VACV Venus inh -9%.
For Cc1noc(C)c1NC(=O)N(C)C[C@H]1Oc2ccc(NS(=O)(=O)c3cccs3)cc2C(=O)N([C@H](C)CO)C[C@@H]1C the results were VACV mCherry inh inactive and VACV Venus inh -8%.
For CCCCn1c(N)c(N(CCOC)C(=O)c2cccc(-n3cnnn3)c2)c(=O)[nH]c1=O the results were VACV mCherry inh -9% and VACV Venus inh -6%.
CCOc1ccc2oc(-c3ccccc3)c(C(=O)N3CCN(CCO)CC3)c2c1 was read as VACV mCherry inh -15% and VACV Venus inh -10%.
Screening Cc1ccccc1C(=O)N1CCN(c2ccc(NC(=O)CSc3ccc(Cl)cc3)cc2)CC1 returned VACV mCherry inh -29% and VACV Venus inh inconclusive.
Nc1ncnc2c1nc(Br)n2[C@@H]1O[C@@H]2COP(=O)(O)O[C@H]2[C@H]1O was read as VACV mCherry inh -29% and VACV Venus inh -16%.
Cc1cc(Cl)ccc1OCCCC(=O)NCCc1nnc2ccccn12 was read as VACV mCherry inh -21% and VACV Venus inh -27%.
CCn1c(C(=O)N2CCC(C(=O)N3CCC4(CC3)OCCO4)CC2)cc2sccc21 was read as VACV mCherry inh -21% and VACV Venus inh -7%.
`CCOC(=O)C1=C(C)NC2=C(C(=O)CCC2)C1c1cn(Cc2ccc(Cl)cc2Cl)nc1-c1ccccc1` (stereo not given) gave VACV mCherry inh inconclusive and VACV Venus inh inconclusive.
Screening CO/N=C(\CS(=O)(=O)Cc1ccc(OC)cc1)c1ccc(Cl)cc1 returned VACV mCherry inh inactive and VACV Venus inh -8%.
For Cc1cc(C)cc(Nc2nc3ccccc3n3cnnc23)c1 the results were VACV mCherry inh inactive and VACV Venus inh -21%.
CCN(CC)CCNC(=O)C(=O)Nc1cc2c3c(c1)CCC(=O)N3CCC2 was read as VACV mCherry inh -11% and VACV Venus inh -9%.
Screening CCOC(=O)c1c(C)[nH]c(C)c1S(=O)(=O)N1CCCC(C(=O)N2CCN(c3cccc(C)c3C)CC2)C1 (stereo not given) returned VACV mCherry inh -27% and VACV Venus inh -17%.
Nc1nnc(SCC(=O)OCC(=O)Nc2ccccc2F)s1 was read as VACV mCherry inh inactive and VACV Venus inh -18%.
`Cc1cc(=O)oc2c(C)c(OC3CCCCC3=O)ccc12` (stereo not given) gave VACV mCherry inh -10% and VACV Venus inh -10%.
For CCOc1ccc(S(=O)(=O)N2CCCC(C(=O)NCc3ccccn3)C2)cc1Cl (stereo not given) the results were VACV mCherry inh -22% and VACV Venus inh inconclusive.
`COc1ccc(OC)c(NC(=O)c2ccno2)c1` gave VACV mCherry inh inactive and VACV Venus inh -2%.
Screening COc1ccccc1NC(=O)CSC1=Nc2ccccc2C2=NC(CCC(=O)NCCc3ccccc3)C(=O)N12 (stereo not given) returned VACV mCherry inh -11% and VACV Venus inh -5%.
`CSc1nc2c(c(=O)[nH]1)C(c1ccc(F)cc1)CC(=O)N2` (stereo not given) gave VACV mCherry inh inactive and VACV Venus inh -9%.
COC(=O)c1cc2sc(Cl)cc2n1CC(=O)Nc1cc(C)cc(C)c1 was read as VACV mCherry inh -9% and VACV Venus inh -3%.
Screening COc1cc(C(=O)Nc2nonc2-c2ccc(C)c(C)c2)cc(OC)c1OC returned VACV mCherry inh -10% and VACV Venus inh -4%.
For CCOc1ccc(S(=O)(=O)N2CCN(C)CC2)cc1NC(=O)c1ccccc1F the results were VACV mCherry inh -18% and VACV Venus inh -27%.
Cc1c2cnn(CC(=O)Nc3c(F)c(F)cc(F)c3F)c(=O)c2c(C)n1Cc1ccccc1F was read as VACV mCherry inh -10% and VACV Venus inh -6%.
Screening CCOc1cc(C2NC(=O)c3ccccc3O2)ccc1OC (stereo not given) returned VACV mCherry inh inactive and VACV Venus inh -4%.
Screening N#Cc1ccc(NC(=O)COC(=O)C2CCC2)cc1 returned VACV mCherry inh -1% and VACV Venus inh -14%.
Screening CC(=O)N1CCc2ccc(S(=O)(=O)N3CC(C)OC(C)C3)cc21 (stereo not given) returned VACV mCherry inh -13% and VACV Venus inh -19%.
Screening Cc1nc2c(nnn2Cc2c(Cl)cccc2Cl)c(=O)[nH]1 returned VACV mCherry inh -8% and VACV Venus inh -14%.
For COc1ccc(-n2c(=S)[nH]c3sc(-c4ccccc4)cc3c2=O)c(OC)c1 the results were VACV mCherry inh -17% and VACV Venus inh -8%.
Screening CCn1c2ccccc2c2cc(CN3CCN(Cc4ccc(Cl)cc4)CC3)ccc21 returned VACV mCherry inh -30% and VACV Venus inh -28%.
Screening Cc1nnc(SCCC#N)n(CCC#N)c1=O returned VACV Venus inh -18%.
For CNc1n[nH]c(-c2ccccc2)n1 the results were VACV mCherry inh -20% and VACV Venus inh -5%.
`O=C(NCc1ccc(Cl)nc1)c1ccc2sc([C@@H]3O[C@H](CO)[C@H](O)[C@H](O)[C@H]3O)nc2c1` gave VACV mCherry inh 27% and VACV Venus inh 3%.
`CCCCC(CCCCl)C(=O)Nc1ccccc1` (stereo not given) gave VACV mCherry inh inactive and VACV Venus inh -1%.
For CN(Cc1nc(-c2cccnc2)no1)S(=O)(=O)c1ccccc1 the results were VACV Venus inh 11%.
Screening Cc1cc(C(=O)NCC2COc3ccccc3O2)c2ccccc2n1 (stereo not given) returned VACV mCherry inh inactive and VACV Venus inh -15%.
Screening O=C(OCc1ccccc1)/C(=C/c1ccccc1Cl)NC(=O)c1ccco1 returned VACV mCherry inh -5% and VACV Venus inh -17%.
For N#Cc1ccc(OCC(=O)NNC(=S)NC(=O)C2CC2)cc1 the results were VACV mCherry inh inactive and VACV Venus inh -10%.
For CC(C)NC(=O)c1ccc(N2CC3CC(C2)c2cccc(=O)n2C3)c([N+](=O)[O-])c1 (stereo not given) the results were VACV mCherry inh -29% and VACV Venus inh -14%.
`FC(F)(F)c1cccc(N2CCN(C(=S)NC3CCCC3)CC2)c1` gave VACV Venus inh inconclusive.
Screening Cc1ccc2c(=O)cc(C(=O)Nc3ccc(S(=O)(=O)N4CCCCC4)cc3)oc2c1C returned VACV mCherry inh -23% and VACV Venus inh -25%.
O=c1ccc2ccc(OCCOc3cccc(Cl)c3)cc2o1 was read as VACV mCherry inh inactive and VACV Venus inh -22%.
COc1ccc(OC)c(NC(=O)c2cc3c(n(-c4ccc(Cl)cc4)c2=O)CC(C)(C)CC3=O)c1 was read as VACV mCherry inh -4% and VACV Venus inh -3%.
Screening Cc1ccc(/C=C/c2onc(C)c2S(=O)(=O)N2CCC(C(=O)N3CCN(c4ccccc4F)CC3)CC2)cc1 returned VACV mCherry inh -10% and VACV Venus inh -9%.
For COc1cccc(C(=O)Oc2cc(C)[nH]c(=O)c2[N+](=O)[O-])c1OC the results were VACV mCherry inh -14% and VACV Venus inh -4%.
For Cc1nn2cc(-c3ccccc3)nc2s1 the results were VACV mCherry inh inactive and VACV Venus inh 16%.
Screening COc1cccc(NC(=O)c2oc3ccccc3c2NC(=O)COc2ccccc2C)c1 returned VACV mCherry inh -9% and VACV Venus inh -20%.
CC12CCCCN1CCCc1c2[nH]c2ccccc12 (stereo not given) was read as VACV mCherry inh -2% and VACV Venus inh -1%.
Fc1ccc(F)c(Nc2c3c(nc4ccc(Cl)cc24)CCC3)c1 was read as VACV mCherry inh -17% and VACV Venus inh -4%.
C[C@@H]1CN([C@@H](C)CO)C(=O)c2cc(NC(=O)Nc3ccccc3)ccc2O[C@H]1CN(C)C(=O)Nc1cccc2ccccc12 was read as VACV mCherry inh -12% and VACV Venus inh -11%.
Screening COc1ccc(NC(=O)C2=C(C)Nc3c(C(=O)Nc4ccc(C)cc4)cnn3C2c2cccc(Cl)c2)cc1 (stereo not given) returned VACV mCherry inh -2% and VACV Venus inh -19%.
`O=C(Cn1ccc2ccccc2c1=O)N1CCN(Cc2ccc3c(c2)OCO3)CC1` gave VACV mCherry inh -3% and VACV Venus inh -18%.
CN1C(=O)C(=Cc2sc(=O)n(-c3ccccc3)c2N2CCCCC2)C(=O)N(C)C1=O was read as VACV mCherry inh inactive and VACV Venus inh -11%.
COc1ccc(N=Nc2nc(-c3ccccc3)c(-c3ccccc3)[nH]2)cc1 was read as VACV mCherry inh 8% and VACV Venus inh 17%.

Source: PubChem (National Center for Advancing Translational Sciences (NCATS))
